GIRK2 act – activators of human GIRK2 potassium channels. G protein-activated inward rectifier potassium channel 2 (Homo sapiens), P48051. HEK293-GIRK2 thallium flux, Thallos fluorescence. calls only for hits at 25 µM. hit rate 0.05% among 63,000. AID 1259325, 2017;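 active = among the strongest 0.2% of first-round signals and kept after retests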;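 note: first round at about 10 µM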
Target sequence (P48051 whole entry, looked up): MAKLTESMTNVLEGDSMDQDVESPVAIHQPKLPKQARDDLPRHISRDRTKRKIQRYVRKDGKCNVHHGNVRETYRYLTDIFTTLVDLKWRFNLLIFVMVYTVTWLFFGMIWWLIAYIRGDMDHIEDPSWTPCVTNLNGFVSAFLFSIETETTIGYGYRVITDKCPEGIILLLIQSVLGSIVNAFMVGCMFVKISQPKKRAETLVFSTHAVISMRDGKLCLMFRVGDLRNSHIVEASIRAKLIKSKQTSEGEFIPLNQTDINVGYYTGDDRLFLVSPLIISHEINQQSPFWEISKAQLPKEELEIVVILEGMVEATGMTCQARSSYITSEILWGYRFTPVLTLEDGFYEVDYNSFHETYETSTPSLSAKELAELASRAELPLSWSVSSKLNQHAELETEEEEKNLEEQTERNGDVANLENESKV
Calls only; i = inactive. A portion of the library (hit frequency here may not be typical).

#	SMILES	GIRK2 act
1	Cc1ccc(NC(=O)Cn2nc(-c3ccccc3)c3sc(N4CCCC4)nc3c2=O)cc1Cl	i
2	Cc1cc(C)n(-c2ccc(C(=O)NCc3sc(C)nc3C)nn2)n1	i
3	Cc1ccc(S(=O)(=O)c2cn(CC(=O)Nc3ccc(C)c(Cl)c3)c3ccccc3c2=O)cc1C	i
4	COCCc1nnc(NC(=O)C23CC4CC(CC(C4)C2)C3)o1	i
5	COc1cc(C(=O)/C=C/c2ccc3c(c2)OCO3)cc(OC)c1OC	i
6	FC(F)(F)c1cccc(CN2CC(c3nc(-c4cccnc4)no3)C2)c1	i
7	Cc1nc(-n2cccc2)sc1C(=O)NCC#CCN1CCOCC1	i
8	Cc1ccc(Nc2nn3c(=O)c4cc(Cl)ccc4nc3s2)cc1C	i
9	CCCC[C@H](CCC(=O)O)NC(=O)CCCCCCc1ccccc1	i
10	COCC1CCCN(CC(=O)NCc2ccc(F)cc2)C1 (centres undefined)	i
11	COc1cc(OC)c(NC(=O)N2CCN(c3ccc(C)nn3)CC2)cc1Cl	i
12	O=C(Nc1nccs1)c1cccc(-n2cnnn2)c1	i
13	COCCCn1cnc2c(-c3ccccc3)cn(CC(=O)Nc3ccc(C(=O)OC)cc3)c2c1=O	i
14	COc1ccc(-n2nnnc2-c2ccccn2)cc1	i
15	COc1ccc(Cc2cnc(NC(=O)c3cc(=O)c4cc(C)ccc4o3)s2)cc1	i

Results in sequence from the list:
Compounds 2–11 in GIRK2 act read i, i, i, i, i, i, i, i, i, i

Exported with each value named: 2 of the compounds above.
8: Cc1ccc(Nc2nn3c(=O)c4cc(Cl)ccc4nc3s2)cc1C
  GIRK2 act = i

9: CCCC[C@H](CCC(=O)O)NC(=O)CCCCCCc1ccccc1
  GIRK2 act = i

Returning to the listing; the 4 compounds before the break are reprinted first.
#	SMILES	GIRK2 act
12	O=C(Nc1nccs1)c1cccc(-n2cnnn2)c1	i
13	COCCCn1cnc2c(-c3ccccc3)cn(CC(=O)Nc3ccc(C(=O)OC)cc3)c2c1=O	i
14	COc1ccc(-n2nnnc2-c2ccccn2)cc1	i
15	COc1ccc(Cc2cnc(NC(=O)c3cc(=O)c4cc(C)ccc4o3)s2)cc1	i
16	Cn1nc(-c2ccc(F)cc2)cc1C(=O)NCc1nc2ccccc2[nH]1	i
17	O=C(c1cc(C2CC2)on1)N1CC(c2nc(-c3ccncc3)no2)C1	i
18	Cc1ccccc1NC(=O)Cn1nc2cc(-c3ccccn3)nc(C)n2c1=O	i
19	O=C(CSc1nc2ccccc2o1)NCC1CCC(c2nc3ccccc3[nH]2)CC1 (centres undefined)	i
20	Cc1cc(C(F)(F)F)nc(CCNC(=O)c2ccc(Cl)s2)n1	i
21	O=C(NCC1CCS(=O)(=O)C1)C(c1ccccc1)c1ccccc1 (centres undefined)	i
22	COc1ccc(Nc2nnc3nc4c(c[nH]n4-c4ccccc4)c(=O)n23)cc1	i
23	O=S(=O)(N1CCCCCC1)N1CCN(c2ccc(Cl)cc2)CC1	i
24	COc1ccc(-c2noc(-c3c(O)c4ccccc4[nH]c3=O)n2)cc1	i
25	CNC(=O)CSc1nnc(N2CCN(C(=O)COc3ccc(C(C)C)cc3)CC2)s1	i
26	CS(=O)(=O)c1ccc(Nc2nc(CC(=O)NCc3ccc4c(c3)OCO4)cs2)cc1	i
27	Cn1c(O)c(N=Nc2nc3c(c(=O)n(C)c(=O)n3C)n2Cc2ccccc2)c(=O)n(C)c1=O	i
28	CCOc1ccc(CC(=O)N2CCOCC2CO)cc1 (centres undefined)	i
29	CCSc1ccccc1C(=O)NCCN1CCN(c2ccc(Cl)cc2)CC1	i
30	COc1cc(OC)cc(C(=O)Nc2ccc(C)c(N3CCCC3=O)c2)c1	i
31	COc1ccc(NC(=O)CN2CCC(C(=O)NCc3ccc(F)cc3F)CC2)c(OC)c1	i
32	CN(C)c1oc(-c2ccc(S(=O)(=O)N3CCCCC3)cc2)nc1C#N	i
33	COC(=O)C1CCN(C(=O)Cc2cc(=O)[nH]c(SCc3ccccc3)n2)CC1	i
34	Cn1cccc1CN(Cc1cccs1)C(=O)NCCCc1ccccc1	i
35	COc1ccc(Cl)cc1NC(=O)c1n[nH]nc1Nc1ccc(F)cc1	i
36	O=C(Cn1nc2c(N3CCOCC3)nccn2c1=O)Nc1ccc(Br)cc1F	i
37	O=C(Nc1ccc(F)c(Cl)c1)c1cc2n(n1)CCCO2	i
38	Cc1onc(-c2ccccc2Cl)c1C(=O)Nc1nc2c(s1)CN(S(C)(=O)=O)CC2	i
39	Cc1oc2cc(OCc3ccccc3)ccc2c(=O)c1Oc1ccccc1	i
40	CN(CC(=O)N1CCN(c2ccccc2O)CC1)c1nc2ccccc2s1	i
41	COc1ccc(CNS(=O)(=O)c2cccc3cccnc23)cc1	i
42	CCC(C)NC(=O)Cn1cccc(S(=O)(=O)N2CCCCCC2)c1=O (centres undefined)	i
43	COc1ccc(F)cc1S(=O)(=O)Nc1ccc2c(c1)CCCN2S(=O)(=O)c1ccccc1	i
44	COc1ccccc1CNc1nc(S(=O)(=O)c2ccccc2)c(Cl)s1	i
45	CC(=O)Nc1ccc(NC(=O)c2nnn(-c3cc(Cl)ccc3C)c2C)cc1	i
46	COCCCNC(=O)C1CN(C(=O)c2cc(C)on2)C1	i
47	O=C(Nc1ccc2ncccc2c1)c1nnn(-c2ccc(Cl)cc2)n1	i
48	CCc1noc(-c2ccc(=O)n(CC(=O)Nc3cccc(SC)c3)c2)n1	i
49	COc1ccc(-c2cc3ccc(OCC#N)cc3oc2=O)c(OC)c1	i
50	CC(C)(C)c1cc(N)cc(C(C)(C)C)c1	i
51	Cc1ccc(S(=O)(=O)N2CCCC(c3nnc(-c4ccc5c(c4)OCO5)o3)C2)cc1C (centres undefined)	i
52	O=C(Cc1csc(-n2cccc2)n1)Nc1nc(-c2cccnc2)cs1	i
53	O=C(C1CC1c1ccccc1)N1CCN(C(=O)C2(c3cccs3)CCCC2)CC1 (centres undefined)	i
54	Cc1nc(-c2ccccc2F)sc1CNC(=O)c1ccsc1	i
55	COc1ccc(-c2csc3c(=O)n(CC(=O)Nc4cc(Cl)ccc4OC)cnc23)cc1	i
56	O=C(CCCn1cnc(-c2ccccc2)cc1=O)NCc1cccnc1	i
57	CC(NC(=O)C1CSCCC(=O)N1)c1ccccc1 (centres undefined)	i
58	CCN(CC)CCCN1C(=O)c2oc3cc(C)c(C)cc3c(=O)c2C1c1cccc(OC)c1 (centres undefined)	i
59	O=S(=O)(c1cccnc1)N1CCN(c2ccc(-c3ccccc3)nn2)CC1	i
60	COc1ccc(OC)c(S(=O)(=O)NCC(C)(O)c2ccco2)c1 (centres undefined)	i
61	COc1ccc(/C=C2\Oc3c(ccc4c3CN(Cc3ccco3)CO4)C2=O)c(OC)c1	i
62	O=C(Cn1cnc2ccccc21)N1CCN(c2cc(-c3ccccc3)ncn2)CC1	i
63	O=C(O)c1ccc(S(=O)(=O)N2CCC(Cc3ccccc3)CC2)cc1	i
64	O=C(CCCSc1ccc(Cl)cc1)Nc1nc(-c2ccncc2)cs1	i
65	O=C(CSC1CCCC1)NCC1CCN(Cc2ccsc2)CC1	i
66	O=C(Nc1ccccc1F)N1CCN(c2ccc(-c3ccc4c(c3)OCO4)nn2)CC1	i
67	COc1ccc(C(=O)Nc2nnc(-c3cccs3)o2)cc1	i
68	O=C(Cn1cc(S(=O)(=O)N2CCCC2)ccc1=O)NCc1cccs1	i
69	Cc1ccc(NC(=O)CSc2ncnc3nc(N4CCc5ccccc5C4)sc23)cc1F	i
70	CN1C(=O)c2cc(NS(=O)(=O)c3ccc4c(c3)OCCO4)ccc2Oc2ccccc21	i
71	CC(C)(C)C(O)CCNC(=O)/C=C/c1cccs1 (centres undefined)	i
72	O=C(CN1CCN(c2ccc(F)c(F)c2)C1=O)N1CCN(c2ncccn2)CC1	i
73	COc1ccc(C(=O)COC(=O)c2cc3cc(Br)cc(OC)c3oc2=O)cc1	i
74	Cc1c(C)n2c3c(=O)n(Cc4ccccc4Cl)c(=O)n(C)c3nc2n1-c1ccccc1N	i
75	O=C(c1ccco1)N1CCCC(c2nnc(-c3ccc4c(c3)OCO4)o2)C1 (centres undefined)	i

(continued)
#	SMILES	GIRK2 act
76	CCOC(=O)N1CCC(NC(=O)C2COCC(=O)N2Cc2cccs2)CC1 (centres undefined)	i
77	Cn1c(NCC(=O)O)nc2c1c(=O)[nH]c(=O)n2C	i
78	Cc1cc(C)c(NC(=O)Cn2nc3ccc(SC4CCCCC4)nn3c2=O)c(C)c1	i
79	COc1ccccc1-n1nnc(C(=O)Nc2ccc(Cl)cc2Cl)c1C	i
80	Cc1oc(-c2ccccc2)nc1Cn1cccc(S(=O)(=O)N2CCCC2)c1=O	i
81	COc1cc(NC(=O)C2CC(=O)N(c3cccc(F)c3)C2)ncn1 (centres undefined)	i
82	C/C=C(\C)C(=O)OC(C(O)c1cc2ccc(=O)oc2cc1OC)C(C)(C)O (centres undefined)	i
83	COc1ccc(-c2noc(-c3ccc(SCC(=O)Nc4ccccc4)nc3)n2)cc1	i
84	CCS(=O)(=O)NCC(Cc1cccc(F)c1)N1CCCCC1=O (centres undefined)	i
85	Cc1ccc2nc(C3CN(S(C)(=O)=O)C3)[nH]c2c1	i
86	COc1cccc(Oc2coc3cc(OC(=O)C(C)C)ccc3c2=O)c1	i
87	Oc1cccc(-c2nc(N3CCOCC3)c3oc4ncccc4c3n2)c1	i
88	COc1ccc(CCn2c(C)cn3c4c(=O)n(CCC(C)C)c(=O)n(C)c4nc23)cc1OC	i
89	CN1CCN(c2oc(-c3ccc(S(=O)(=O)N4CCCCC4)cc3)nc2C#N)CC1	i
90	CC(=O)Nc1ccc(S(=O)(=O)NCC(C)(O)c2ccco2)cc1 (centres undefined)	i
91	O=[N+]([O-])c1ccc2c(c1)C(c1ccccc1Cl)=Nc1cn[nH]c1N2	i
92	COc1cccc2cc(C(=O)Nc3ccc4c(c3)C(=O)Nc3ccccc3O4)oc12	i
93	CCOC(=O)COc1ccc2c(=O)c(Oc3cccc(OC)c3)coc2c1	i
94	O=C(CCC(=O)N1CCCSCC1CN1CCCC1)c1ccc(Cl)cc1 (centres undefined)	i
95	COc1ccc(CCNS(=O)(=O)CCNC(=O)c2ccc3c(c2)OCO3)cc1	i
96	COC(=O)c1sc2cccc(F)c2c1S(=O)(=O)NCc1cccs1	i
97	Cn1nc(-c2ccccc2)cc1C(=O)N1CCN(C(=O)C2CC2c2ccc(F)cc2)CC1 (centres undefined)	i
98	CN1CCN(NC(=O)C(=O)Nc2ccccc2)CC1	i
99	COc1ccc(-c2nc(NC(=O)CSc3nnc(C)s3)ns2)cc1	i
100	O=C(Cn1cc(C(=O)c2ccccc2)c(=O)c2cc(F)ccc21)Nc1ccc(F)cc1	i
101	O=C(c1cc2ccccc2oc1=O)N1CCN(c2ncnc3c2nnn3-c2ccccc2)CC1	i
102	Cn1cc(C2=C(c3cn(CCCN=C(N)N)c4ccccc34)C(=O)NC2=O)c2ccccc21	i
103	CCCC(=O)N1CCN(C(=O)C(NC(=O)c2ccccc2)S(=O)(=O)c2ccc(C)cc2)CC1 (centres undefined)	i
104	O=C(NCc1cccnc1)c1nc(-c2nc(-c3ccncc3)no2)cs1	i
105	O=C(c1ccc(=O)[nH]n1)N1CCN(Cc2nc3ccccc3n2Cc2ccccc2)CC1	i
106	COc1ccc(C)cc1-n1c(C)cn2c3c(=O)n(CC(N)=O)c(=O)n(C)c3nc12	i
107	CCOc1ccc(-c2cc(C(=O)Nc3ccc(S(=O)(=O)N4CCCCC4)cc3)no2)cc1	i
108	Cc1ccc(-c2cc(=O)n(CC(=O)Nc3ccc(C)cc3Br)[nH]2)cc1	i
109	COc1cccc(C(=O)c2sc(Nc3ccc(N4CCN(C(C)C)CC4)cc3)nc2N)c1	i
110	O=C(Cn1nc(C(=O)N2CCOCC2)cc1-c1cccs1)NCCc1ccc(F)cc1	i
111	Cc1cccc(CC(=O)Nc2cc(-c3cccs3)nn2-c2nc3c(c(=O)[nH]2)CCCC3)c1	i
112	CCc1cccc(OCC(O)Cn2c(N/N=C\c3cccnc3)nc3c2c(=O)n(C)c(=O)n3C)c1 (centres undefined)	i
113	CC(=O)N1CCN(c2c(C)cnc3c2c(=O)n(CC(=O)Nc2ccc(F)cc2)c(=O)n3C)CC1	i
114	NC(=O)c1nsc2c(=O)n(CC(=O)NCc3ccccc3Cl)cnc12	i
115	CCCCC[C@H](O)/C=C/[C@H]1[C@H](O)CC(=O)[C@@H]1C/C=C/CCCC(=O)O	i
116	O=C(Cc1csc(Nc2ccc(Cl)cn2)n1)Nc1nc(-c2cccnc2)cs1	i
117	COc1cc(C(=O)Nc2cc(C)on2)on1	i
118	COc1ccc(CNC(=O)c2ccc(Oc3nccnc3N3CCC(C)CC3)cc2)cc1	i
119	COc1cccc(-c2cc(C(=O)N3CCN(C(=O)c4cnn5ccccc45)CC3)[nH]n2)c1	i
120	Cn1cc(-c2ccco2)nc1CCNC(=O)c1ccccc1C(F)(F)F	i
121	O=C(CCS(=O)(=O)Cc1ccccc1)Nc1nc2c(Cl)cccc2s1	i
122	COCC(C)NC(=O)c1nnn(-c2ccc(Br)cc2)n1 (centres undefined)	i
123	COCCn1c(N2CCN(c3ccc(OC)cc3)CC2)nc2c1c(=O)[nH]c(=O)n2C	i
124	Nc1nccc(-c2c(-c3ccc(F)cc3)ncn2CCCN2CCOCC2)n1	i
125	Cc1sc2c(c1C)C(=O)NC1Cc3ccccc3CN21 (centres undefined)	i
126	CNC(=O)CSc1nc2c(c(C(F)(F)F)c1C#N)CC(C(C)(C)C)CC2 (centres undefined)	i
127	CCCCC/C=C\C/C=C\C/C=C\C/C=C\CCCC(=O)S[C@H](COCCCCCCCCCCCCCCCC)COP(=O)([O-])OCC[N+](C)(C)C	i
128	COc1ccc(NC(=O)Cn2c(=O)c(CNc3ccccc3)cc3cc(OC)c(OC)cc32)cc1	i
129	COC(=O)Nc1nc2ccc(C(=O)c3ccccc3)cc2[nH]1	i
